Bioassay records (PubChem BioAssay)
D2 ag: Beta-Arrestin HTS for Positive Allosteric Modulators of the Human D2 Dopamine Receptor: Agonists | D(2) dopamine receptor (Homo sapiens), P14416 | 0.084% of 360,000 active | DiscoveRx PathHunter D2 beta-arrestin, luminescence, 90 min; 100% = 57 uM dopamine signal | activation, % (test concentration not listed) | AID 624465, 2012; in the data active = activation above about 40%; inconclusive = about 15% to 40%; inactive = below about 15%; further: compound concentration not given in the record; the text of the record calls up to 30% inactive
Target sequence (P14416 whole entry, looked up): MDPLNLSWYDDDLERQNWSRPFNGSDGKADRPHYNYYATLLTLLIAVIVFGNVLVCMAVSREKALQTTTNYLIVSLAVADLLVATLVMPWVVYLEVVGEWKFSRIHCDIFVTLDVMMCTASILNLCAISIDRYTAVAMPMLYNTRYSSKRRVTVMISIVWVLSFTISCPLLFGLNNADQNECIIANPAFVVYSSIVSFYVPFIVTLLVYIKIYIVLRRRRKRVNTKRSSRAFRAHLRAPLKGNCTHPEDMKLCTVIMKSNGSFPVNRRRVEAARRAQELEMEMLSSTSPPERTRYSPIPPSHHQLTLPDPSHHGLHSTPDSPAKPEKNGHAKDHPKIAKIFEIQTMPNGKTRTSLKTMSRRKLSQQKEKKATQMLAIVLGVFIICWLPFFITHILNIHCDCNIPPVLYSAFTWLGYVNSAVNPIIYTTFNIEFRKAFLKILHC
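Agonist mode: compounds alone added to overnight-plated D2 PathHunter cells for 90 min at 37 C, with 57 uM final dopamine (EC100) defining full response. Beta-arrestin recruitment detected by chemiluminescent reagent, read after 1 h at ambient temperature.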
gsp agonist: qHTS for Agonist of gsp, the Etiologic Mutation Responsible for Fibrous Dysplasia/McCune-Albright Syndrome: qHTS; gsp mutant cells, cAMP HTRF, 30 min; control for the full effect not named in the record; Potency, µM (series often up to 76.9 µM), for inactives: top-dose activation (cAMP increase), most hits filed as activators; 0.13% of 340,000 active; active = well fitted activation curve with a large enough effect; inconclusive = small, poorly fitted or top-dose-only effect, or another doubt; inactive = no such curve, though single readings can be large or run the other way; cell line not stated here;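 further: phosphodiesterase inhibitor Ro 20-1724 added with compounds to block cAMP breakdown; potency means the concentration at half of the fitted maximal effect; nearly all actives have a fitted effect of over 60% in size; about a fifth of the inactives were tested at one dose only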
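Cells stably selected in G418 were plated at 2000/well, grown 16-24 hr, then given compounds in DMSO with the PDE inhibitor […] (300 uM solution added) for 30 min at 37C; cAMP was read by HTRF.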
Sfp PPTase inh: qHTS Assay for Inhibitors of Bacillus subtilis Sfp phosphopantetheinyl transferase (PPTase) | 4'-phosphopantetheinyl transferase ffp (Bacillus subtilis), Q9F4F7 | Potency, µM, for inactives: max response, negative = inhibition, usual class: inhibitors | Biochemical Sfp PPTase activity, qHTS | 3.5% of 310,000 active; active means well fitted inhibition curve with a large enough effect; inconclusive means small, poorly fitted or top-dose-only effect, or another doubt; inactive means no such curve, though single readings can be large or run the other way;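 further: the enzyme is Sfp with the accession as filed and its product quenches rhodamine fluorescence; potency means the concentration at half of the fitted maximal effect; 0% = enzyme reaction without inhibitor and -100% = no enzyme wells; top concentration of the series not given in the record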
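Buffer: 50 mM Hepes-Na pH 7.6, 10 mM MgCl2, 0.01% Nonidet P-40, 0.01% BSA. Enzyme 15 nM, pre-exposed to compound 15 min; substrates then added and fluorescence change tracked over 30 min.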
Menin MLL FP FL: qHTS Assay for Inhibitors Targeting the Menin-MLL Interaction in MLL Related Leukemias: Competition With Fluorescein Labeled MLL-derived Peptide. Fluorescence polarization, fluorescein-MLL peptide displacement from menin. FP activity change, % at 61.4 µM. 290,000 tested, under 10 active; inconclusive = falling polarisation curve, or a change in total fluorescence; inactive = total fluorescence flat and polarisation flat or rising; no compound was filed as active; the % refers to the polarisation; negative = inhibition;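 further: % of control where 0% means no effect; inhibitors lower the polarisation; unlabelled MLL peptide was the positive control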
PINK1 modulator: A Quantitative High throughput Screen to Identify Chemical Modulators of PINK1 Expression. 0.2% of 410,000 active. Potency, µM (series often up to 76.6 µM), inactives show at the top dose activation (PINK1 increase), actives largely listed as activators. PINK1 immunofluorescence, high-content cytometry, 24 h; active = well fitted activation curve with a large enough effect; inconclusive = small, poorly fitted or top-dose-only effect; inactive = flat fitted curve, though single readings scatter; cell line not stated here;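 further: potency means the concentration at half of the fitted maximal effect; % of control where 0% means no effect; nearly all actives have a fitted effect of over 65% in size; a mitochondrial uncoupler was the plate control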
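Stable cell line, 250 cells/well, 12 h attachment; compounds pinned at 5 concentrations, 24 h; CCCP control. Fixed with nuclear dye, primary antibodies 12 h at 10 degrees C, secondary plus cell stain; laser-scanning cytometer read.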
ClpP mod: qHTS Assay for Activators of ClpP; ATP-dependent Clp protease proteolytic subunit (Bacillus subtilis (strain 168)), P80244; purified B. subtilis ClpP, FRET peptide cleavage, 20 min; Potency, µM (doses to about 57.5 µM), without a hit: top-dose activity change, negative = active; 1.9% of 340,000 active; AID 651965, 2013; active = well fitted falling curve with a large enough effect; inconclusive = small, poorly fitted or top-dose-only effect; inactive = no such curve, though single readings can be large or run the other way; further: potency means the concentration at half of the fitted maximal effect; the source files actives as falling curves though it sought activators and does not explain the sign; nearly all actives have a fitted effect of over 65% in size; many hits overshoot -100%
Target sequence (P80244 whole entry, looked up): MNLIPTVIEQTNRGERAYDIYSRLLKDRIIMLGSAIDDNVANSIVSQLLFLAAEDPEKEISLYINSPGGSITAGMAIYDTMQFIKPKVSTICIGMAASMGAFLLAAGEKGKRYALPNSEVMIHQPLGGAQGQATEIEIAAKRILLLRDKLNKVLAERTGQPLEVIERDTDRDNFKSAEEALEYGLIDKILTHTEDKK
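Buffer: 100 mM Tris/HCl pH8, 100 mM KCl, 0.05% low protease BSA, 2.5% glycerol, 0.01% Tween-20. ClpP 10 microg/mL final; 20 min RT; delta FRET normalized to ADEP and DMSO controls.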
gsp antagonist: qHTS for Antagonists of gsp, the Etiologic Mutation Responsible for Fibrous Dysplasia/McCune-Albright Syndrome: qHTS. Potency, µM (highest dose often 76.9 µM), inactives show at the top dose activity change, negative = inhibition, most hits filed as inhibitors. 0.4% of 340,000 active. gsp-mutant cells, cAMP HTRF, 30 min; control for the full effect not named in the record. AID 624288, 2012; active = falling curve of any shape with a large fitted effect; inconclusive = falling curve, mostly with a smaller effect; inactive = flat or rising curve; cell line not stated here;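 further: intracellular cAMP measured with PDE inhibitor Ro 20-1724 present during compound exposure; potency means the concentration at half of the fitted maximal effect; on the % scale 0 is the no-effect control and ±100 the full control effect; nearly all actives have a fitted effect of over 65% in size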
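Measurement of cellular cAMP by homogeneous time-resolved fluorescence following a 30 min compound exposure at 37C. The PDE inhibitor […] was present throughout; the assay buffer was DPBS with 0.05% BSA and 0.005% Tween 20.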
* marks the source's active call; other numbers are inactive results; ? = inconclusive; / = no result given; & = joins results of further samples; [ ] = dose if it differs, or a comment. Hits appear at their usual frequency; overall some 5.1% were active at least once.

SMILES | D2 ag | gsp agonist | Sfp PPTase inh | Menin MLL FP FL | PINK1 modulator | ClpP mod | gsp antagonist
CCCCNc1c(-c2ccc(SC3CCCCC3)cc2)nc2ccccn12 | 3.3 | / | / | / | ? | 4.2%&4.5% | 8.9%
COC(=O)c1ccc(COC(=O)CNC(=O)CNC(=O)c2ccc(C)cc2)cc1 | 1.3 | -12.1% | 10.2% | -0.2 | 0.3% | 1.9% | -7.3%
O=C1NCC(c2ccccc2)C1C(=O)N/N=C\c1ccc(-c2cccc(Cl)c2Cl)o1 (stereo not drawn) | -5.3 | -26.8% | -28.9% | 0.8 | -1.5% | -10.3% | -16.9%
O=C(CNC(=O)COc1ccccc1)NCc1cccnc1 | -3.3 | -14.4%[15.4 µM] | 15.0% | 4.6 | 0.2% | / | 13.1%
CC1=C(C/C=C(\C)CCC[C@H](C)CCC[C@H](C)CCCC(C)C)C(=O)c2ccccc2C1=O | 3.8 | / | / | / | -0.1% | 2.5% | 9.4%
CC1CCN(C(=O)c2ccc3c(c2)C(=O)c2ccccc2-3)CC1 | -4.7 | -61.6%[inhibitor] | / | / | -0.5% | -3.0% | /
CC(C)(C)NC(=O)c1ccc(COc2ccccc2Br)o1 | -0.6 | 7.4% | -3.9% | 2.8 | -1.2% | -1.6% | ?
O=S(=O)(c1cccc2nsnc12)N1CCN(c2ncccn2)CC1 | 0.4 | -2.2% | 1.1% | -0.1 | -0.7% | 0.5% | 5.2%
Oc1ccccc1CNc1ccc(Br)cn1 | 10.9 | 0.0% | 8.1% | -2.9 | -0.9% | 3.16µM* | 7.9%
CSc1ccc(-c2nc(O)c3cnccn23)cc1 | 6.0 | -25.1% | -2.7% | 0.8 | -1.1% | / | ?
COc1ccc(NC(=O)c2ccc(NCC3CCCO3)c([N+](=O)[O-])c2)cc1 (stereo not drawn) | 1.6 | 20.0% | -6.0% | 4.8 | -1.7% | / | -4.4%
O=C(Cc1cn2ccsc2n1)Nc1ccccc1Oc1ccccc1 | -3.5 | -5.6% | 5.1% | -0.3 | -2.6% | 5.0% | -19.5%
Nn1c(SCC(=O)Nc2ccc(OC(F)F)cc2)nnc(Cc2ccccc2)c1=O | 1.2 | 4.6%[15.4 µM] | / | / | 3.1% | / | 3.4%
O=C(OC1CCOC1=O)c1cccc(S(=O)(=O)Nc2ccc(F)cc2)c1 (stereo not drawn) | 0.7 | -0.3%[15.4 µM] | 2.9% | 6.2 | 3.1% | 0.8% | 2.3%
CC(/C=C1\SC(=O)N(CC(=O)Nc2ccc(O)cc2)C1=O)=C\c1ccccc1 | -1.0 | 6.8% | -5.8% | 2.6 | -1.1% | -2.5% | ?
CCOCCCNC(=O)/C(C#N)=C/c1ccc(C(=O)OC)cc1 | 4.2 | 1.9% | 1.5% | 4.5 | 2.7% | -1.1% | 2.1%
CCc1ccccc1NC(=O)C(CC)Sc1nc2cc3c(cc2c(=O)n1Cc1ccco1)OCO3 (stereo not drawn) | -2.3 | -83.0%[inhibitor] | 24.0% | 0.8 | ? | -4.2% | 13.1%
CCC12CCCN3CCC4(C(=C(C(=O)OC)C1)Nc1ccccc14)C32 (stereo not drawn) | 0.3 | -8.0% | -1.1% | 0.0 | 21.4% | -10.6% | 8.0%
CCn1c(SCC(=O)Nc2ccc(OC)cc2OC)nc2nc3c(cc2c1=O)COC(C)(C)C3 | -3.7 | 1.5% | 17.8% | 0.2 | 3.5% | / | -18.6%
COc1ccc(C(=O)COC(=O)c2ccccc2NS(=O)(=O)c2ccc(O)c([N+](=O)[O-])c2)cc1 | 0.3 | 22.2%[15.4 µM] | 8.4% | 0.1 | -2.1% | / | -24.2%
COC(=O)C(C)Sc1snnc1-c1ccccc1 (stereo not drawn) | -1.9 | -31.2%[inhibitor] | -8.4% | -1.1 | 0.8% | -0.8% | 2.0%
Cn1cnc2cc(NC(=O)c3ccc(Cl)cc3)ccc21 | 1.0 | 18.9% | 12.6% | 1.8 | 6.1% | 1.8% | 1.7%
COc1ccccc1CNC(=O)COC(=O)Cc1c[nH]c2ccccc12 | 0.8 | -19.4% | / | / | 3.1% | 2.4% | -9.0%
CCCNc1nc(N2CCCC2)nc(N2CCCC2)n1 | 0.1 | 22.9%[15.4 µM] | 13.9% | -1.2 | 1.2% | / | -27.2%
CC(C)Cc1cc(C(=O)Nc2cc(C(F)(F)F)ccc2Cl)no1 | -1.9 | -4.4% | 5.8% | 2.9 | 4.7% | -1.1% | -1.1%
O=C(Cn1nc(-c2ccccc2)c2ccccc2c1=O)NCCN1CCOCC1 | -0.9 | 7.9% | -2.0% | -0.4 | 0.0% | -5.1% | 0.7%
CCN(CC(=O)NCc1ccc(F)cc1)C(=O)COc1ccc(C)c(C)c1 | -5.2 | 0.5% | 12.8% | 6.3 | 3.0% | -1.4% | -11.2%
COc1ccc(OC)c(CN2CCN(C(=O)CNC(=O)c3ccccc3F)CC2)c1 | 0.9 | -0.9% | / | / | -1.4% | / | 3.9%
CCOC(=O)C1CCN(C(=O)CCNC(=O)c2ccccc2OC)CC1 | -3.1 | -36.8%[inhibitor] | / | / | -1.0% | -1.3% | 0.6%
C=CCOc1ccc(C2=NO[C@@H]3[C@@H]4C[C@@H]([C@H]5C(=O)N(C)C(=O)[C@@H]45)[C@H]23)cc1 | -8.3 | 2.2% | 13.9% | 1.8 | 0.2% | -13.4% | -3.3%
NC(=O)NC1NC(=O)NC1=O (stereo not drawn) | -4.4 | / | 31.3%&14.1% | -5.0&-1.1 | -1.5%&-0.3% | -1.5% | 1.7%
O=C(CCNC(=O)Cn1ccc2ccccc2c1=O)NCCN1CCN(c2cccc(Cl)c2)CC1 | -0.6 | -21.7% | 9.3% | -1.7 | 1.5% | -11.0% | 5.9%
Cc1ccc(NC(=O)COC(=O)c2ccc3c(c2)OCO3)c(C)c1 | -3.8 | -16.0% | 9.4% | 0.4 | 2.8% | -9.3% | -2.0%
CCOc1cc2c(C#N)c(N3CCCCC3)nc(N)c2c(N)n1 | 0.0 | -0.5% | ? | ? | ? | 25.1µM* | -5.0%
Cc1cc(C)nc(N2CCC(C(=O)NNC(=O)c3ccccc3)CC2)n1 | -3.2 | 11.1% | 9.6% | -1.1 | -0.1% | / | 6.1%
CCn1c(SCC(=O)NCc2ccccc2)nnc1-c1ccccc1O | -0.8 | 0.5% | -0.8% | 0.1 | / | -3.4% | -1.8%
CCN(CC)c1ccc(N=C2C(=O)Nc3ccccc32)cc1 | -14.6 | 4.3%[15.4 µM] | ? | 0.3 | 7.3% | / | ?
CCN(CC)CCn1cnc2c1c(=O)n(CCOC(=O)c1cc(OC)c(OC)c(OC)c1)c(=O)n2C | -4.4 | -2.0%[15.4 µM] | 7.4% | 2.5 | 0.2% | / | 7.1%
CCCCCCC1CCC(c2nc(-c3ccncc3)no2)CC1 (stereo not drawn) | -1.7 | -27.4% | 9.1% | 3.1 | 0.6% | 2.7% | 8.3%
COC(=O)c1ccc(CN2C(=O)c3ccccc3C2=O)cc1 | 0.5 | 2.2%[15.4 µM] | 16.7% | 1.0 | -0.9% | -11.8% | 6.5%
CC1(C)NC(=O)N(CC(=O)OCC(=O)Nc2cc(S(=O)(=O)N3CCCCCC3)ccc2Cl)C1=O | -0.2 | 12.9% | -8.3% | -3.4 | -0.9% | 0.2% | -7.6%
CCC(=O)NNc1nc2c(C)c(C)ccc2s1 | -18.9 | -11.7% | -4.7% | 1.3 | 0.3% | 0.8% | 17.6%
CCc1ccc(NS(=O)(=O)c2c(C)nc3sc(CC)nn3c2=O)cc1 | -5.6 | ? | 14.2% | 0.6 | 0.5%&-2.3% | 0.5%&-1.8% | -3.3%
CCC(Oc1ccccc1)C(=O)Nc1ccccc1C(=O)N1CCN(C)CC1 (stereo not drawn) | 0.3 | -83.4%[inhibitor] | 15.6% | / | -1.3% | -0.7% | -9.6%
CSc1ncnc2c1ncn2CCCNCc1ccc2c(c1)OCO2 | -4.2 | ? | / | / | 3.4% | 0.3% | /
COc1ccc(C2c3[nH]c4ccccc4c3CCN2C(=O)c2cc3ncccn3n2)c(F)c1 (stereo not drawn) | -2.4 | -4.8%[15.4 µM] | -28.2% | 4.3 | 0.4% | / | /
Nc1ccc(S(=O)(=O)Nc2cc(Cl)c(N)c(Cl)c2)cc1 | 13.2 | -15.9% | / | / | -1.1% | / | 14.3%
CC(=O)c1cccc(N=Cc2c(O)ccc3ccccc23)c1 | 0.2 | 12.5%[15.4 µM] | 10.7% | 2.2 | 2.7% | 0.3% | 10.0%
CCCCOC(=O)c1ccc(-c2ccc(/C=N/NC(=S)NCC)o2)cc1 | -1.6 | 16.4% | 6.2% | 7.1 | 21.6%[38.3 µM] | -4.0% | 9.1%
C[C@@]12CCC3[C@@](CCC4[C@@]3(C)CCC[C@@]4(C)C(=O)NC3CCCCC3)(CC1=O)C2 (stereo partly drawn) | -2.4 | / | / | / | 1.6% | 0.5% | -15.6%
Cc1cnc(CN2CCc3c([nH]c4ccccc34)C2C2CCCCC2)[nH]1 (stereo not drawn) | 0.0 | -0.3%[15.4 µM] | 8.7% | -7.2 | ? | / | 15.1%
COc1ccccc1N(C)S(=O)(=O)c1ccc(C(=O)OCC(=O)c2c[nH]c3ccccc23)cc1 | 0.5 | -63.0%[inhibitor] | 0.2% | 3.2 | 8.5% | -2.1% | 0.4%
COc1ccc(Oc2cc(C)c3ccccc3n2)cc1 | ? | 3.8% | 1.8% | -1.1 | 0.8% | -6.4% | -1.9%
O=C1c2ccccc2C(=O)N1CCCc1nc2ccccc2c(=O)n1Cc1ccco1 | -0.6 | -10.2% | -5.1% | 0.7 | -0.3% | 1.4% | -15.5%
